MLL AF4-AF9 inh – inhibitors of AF4 peptide binding to AF9, primary screen, biochemical, AlphaScreen, biotin-AF4 peptide, FLAG-AF9, single point | Protein AF-9 (Homo sapiens), P42568 | AID 651704, 2012 | 350,000 compounds, 0.47% hits | inhibition, % at 10 µM;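 active means every replicate reaching a set inhibition limit, whatever the replicate mean, cut at about 25% in these data; inconclusive means mean inhibition reaches that limit but some replicates miss it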;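 further: 0% = plate neutral control median and 100% = total signal loss; the record names both 10 and 1 µM as test concentration; the first replicate is given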
Target sequence (P42568 whole entry, looked up): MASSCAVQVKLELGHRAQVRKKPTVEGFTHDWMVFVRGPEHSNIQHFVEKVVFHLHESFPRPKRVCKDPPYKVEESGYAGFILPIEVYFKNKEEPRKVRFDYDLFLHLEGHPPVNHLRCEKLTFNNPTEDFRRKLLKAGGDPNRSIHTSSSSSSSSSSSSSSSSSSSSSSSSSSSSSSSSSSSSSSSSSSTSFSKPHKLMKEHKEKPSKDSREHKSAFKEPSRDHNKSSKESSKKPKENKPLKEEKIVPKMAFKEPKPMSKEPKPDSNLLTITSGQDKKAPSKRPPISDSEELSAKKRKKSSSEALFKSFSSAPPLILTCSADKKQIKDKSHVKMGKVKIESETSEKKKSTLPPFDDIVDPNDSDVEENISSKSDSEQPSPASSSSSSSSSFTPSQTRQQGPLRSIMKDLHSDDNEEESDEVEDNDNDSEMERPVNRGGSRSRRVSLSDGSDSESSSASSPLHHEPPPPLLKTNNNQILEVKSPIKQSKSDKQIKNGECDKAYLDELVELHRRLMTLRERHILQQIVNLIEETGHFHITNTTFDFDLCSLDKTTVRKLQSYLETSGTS
rRNA inh HTS – reduced GFP signal of wild-type E. coli, primary screen, bacterial rRNA inhibitor project, GFP/RFP fluorescence, OD600, single point | E. coli WT GFP vs humanized-ribosome RFP mutants, 24 h; active compounds read low; DMSO median 0, no signal -100 | GFP signal change (wild-type ribosome), % (concentration not given with the values) | 350,000 compounds, 1.6% hits | AID 720706, 2013;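 active means significant combined selectivity score with lowered wild-type GFP, culture density cut under 30%, mutant RFP and density less affected; inactive means any of these conditions unmet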; further: one replicate is shown; some compounds called inactive have numbers as strong as hits
FGF22 binding – binders of human FGF22 protein, primary screen, FGF22 synaptogenesis inhibitor project, biophysical, thermal shift, single point; AID 651658, 2012; calls only at 9.99 µM; 340,000 compounds, 1.5% hits; recombinant FGF22 thermal shift, SYPRO orange fluorescence; percent of sucrose octasulfate shift, DMSO zero; Fibroblast growth factor 22 (Homo sapiens), Q9HCT0;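 active means melting point raised past a set limit in the mean and every replicate; inconclusive means no clear call; three in four hits are not shown here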
Target sequence (Q9HCT0 whole entry, looked up): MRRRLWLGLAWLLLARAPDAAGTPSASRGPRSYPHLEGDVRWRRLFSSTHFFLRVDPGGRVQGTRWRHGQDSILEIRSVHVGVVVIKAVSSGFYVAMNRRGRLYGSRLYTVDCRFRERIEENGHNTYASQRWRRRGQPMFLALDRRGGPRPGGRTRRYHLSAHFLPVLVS
ALR H2O2 inh – inhibitors of human ALR sulfhydryl oxidase, primary screen, biochemical, H2O2 detection, HRP-luminol luminescence, single point. 290,000 compounds, 3.8% hits. inhibition, % (test concentration not listed). purified ALR, DTT oxidation. FAD-linked sulfhydryl oxidase ALR (Homo sapiens), P55789;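 active means mean and each replicate at 75% or more; inconclusive means only one of the two met; inactive means neither met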;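 further: stock transfer was 7.5 nL into about 7.5 µL; 0% = neutral wells and 100% = wells with inactivated enzyme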
Target sequence (P55789 whole entry, looked up): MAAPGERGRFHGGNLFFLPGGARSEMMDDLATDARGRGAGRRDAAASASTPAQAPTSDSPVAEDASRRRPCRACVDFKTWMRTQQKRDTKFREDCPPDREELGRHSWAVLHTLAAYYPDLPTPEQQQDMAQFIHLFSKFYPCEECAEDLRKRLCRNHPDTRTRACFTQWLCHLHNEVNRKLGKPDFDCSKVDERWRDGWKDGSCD
RanGTP-Impb inh – inhibitors of RanGTP-importin-beta interaction, primary screen, biochemical, FRET, CFP-Ran, YFP-importin-beta, homogeneous; Ran GTPase (GTP-bound) - importin-beta complex; cell-free CFP-Ran/YFP-importin-beta FRET ratio; inhibition, % (concentration not given with the values); 300,000 compounds, 1.1% hits;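 active means most replicates above 15%; inconclusive means exactly half above 15%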;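 further: 0% = DMSO wells and 100% = Ran loaded with GDP instead of GTP; wells of about 40 µL received 100 nL stock; the first replicate is given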
Beta cell apopt – inhibitors of cytokine-induced beta cell apoptosis, primary screen, luminescence. INS-1E cytokine-induced death, ATP luminescence, 48 h; percent of positive-control rescue, neutral wells zero. AID 435005, 2010. 300,000 compounds, 0.8% hits. protection from apoptosis, % (no concentration beside the values);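 active means all replicates at 75% or more, or half of them and the mean; inconclusive means half reach 75% but not the mean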;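 further: 0% = cytokine-treated negative control wells and 100% = positive control rescue; higher means more ATP so stronger rescue from cytokine killing; wells of about 40 µL received 100 nL stock; the first replicate is given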
T cruzi inh – inhibitors of intracellular T. cruzi growth, primary screen, luminescence, NIH3T3 host cells | T. cruzi beta-gal in NIH3T3, 90 h | inhibition, % (test concentration not listed) | 300,000 compounds, 1.4% hits;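 active means mean inhibition across valid replicates above about 55%, limit read from the data; inconclusive means mean below that limit but half or more replicates reach it; inactive means mean below it, under half of replicates reach it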;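 further: signal also drops with host cell toxicity which is not excluded here; 0% = plate median of DMSO wells and 100% = zero luminescence signal; higher percent means less beta-gal luminescence so fewer parasites; stock transfer was 50 nL into about 50 µL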
Calb FLC – C. albicans growth inhibition with fluconazole, primary screen, CaCi-2 strain, Alamar Blue fluorescence; C. albicans CaCi-2 (fluconazole-resistant clinical isolate) + fluconazole, 48 h; growth inhibition, % (test concentration not listed); 300,000 compounds, 0.57% hits; AID 1979, 2009;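 active means most replicates above 75%; inconclusive means exactly half above 75%; inactive means most below 75%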;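 further: all wells also contain fluconazole at 8 µg/ml as a sub-toxic cotreatment; 0% = median of DMSO wells and 100% = median of geldanamycin control wells; wells of about 8 µL received 7.5 nL stock; the first replicate is given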
rRNA inh HTS OD600 – recorded beside rRNA inh HTS, whose call it bears; OD600 change, %; measured here: OD600 growth;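 optical density of the mix in the first replicate; 0 = DMSO median and -100 = no signal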
rRNA inh HTS RFP – also measured in rRNA inh HTS; calls as there; RFP signal change, %; measured here: RFP humanized mutant strains;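 first replicate; 0 = DMSO median and -100 = no signal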
* hit, by the source's call; i = inactive; u = inconclusive; x = no result given.

SMILES | MLL AF4-AF9 inh | rRNA inh HTS | rRNA inh HTS OD600 | rRNA inh HTS RFP | FGF22 binding | ALR H2O2 inh | RanGTP-Impb inh | Beta cell apopt | T cruzi inh | Calb FLC
Cc1ccc(/C=N/NC(=O)CSc2ccccn2)o1 | 1.3 | 4 | 11 | 3.3 | i | 3 | 5.2 | -1 | -6 | -1
COc1ccc(C(=O)NCCn2ccc3ccccc32)cc1 | x | x | x | x | x | -9 | -3.3 | x | 4 | -1
Cc1ccc(NC(=O)c2ccc(NC(=O)c3ccccc3)cc2)cc1C | -0.8 | 2 | 6 | -1.8 | i | -7 | -2.3 | -3 | -7 | -5
CCOC(=O)N1CCN(S(=O)(=O)c2ccc(C(=O)N(CCCN(C)C)c3nc4cc(OC)ccc4s3)cc2)CC1 | 15 | 1 | 0 | -0.5 | i | -9 | 3.7 | x | 68* | 16
CCCCN(CCCC)C(=O)C[n+]1cccc(/C=N/O)c1 | 1.6 | 18 | 10 | -0.9 | i | -2 | -3.5 | -3 | -7 | -8
O=C(NCC(=O)N(Cc1ccco1)C(C(=O)NC1CCCCC1)c1ccncc1)c1cccs1 (centres undefined) | -7.8 | 3 | 2 | -4.2 | i | 6 | 1.4 | -7 | -2 | 2
Cc1ccc2nc(NC(=O)c3ccc(OCC4CCCO4)cc3)sc2c1 (centres undefined) | -1.9 | -1 | 3 | -1.6 | i | 4 | 2.3 | 13 | 9 | -4
OCCC1CN(Cc2ccon2)CCN1Cc1ccccc1 (centres undefined) | 0.0 | 14 | 10 | 1.0 | i | 2 | -0.6 | -5 | -5 | 21
COc1cc(C(=O)N2CCC(NC(=O)C(Cc3ccccc3)NC(C)=O)CC2)cc(OC)c1OC (centres undefined) | x | x | x | x | x | 0 | 0.5 | -4 | -10 | 0
CCOC(=O)c1cc2occc2n1CC(=O)NC1CCCCC1C (centres undefined) | x | x | x | x | x | 1 | 0.9 | x | 4 | -26
CCn1c2ccccc2c2cc(CN3CCN(C(=O)c4ccco4)CC3)ccc21 | x | x | x | x | x | -7 | 4.8 | -4 | 47 | 11
O=C(CCC(=O)c1ccc(F)cc1)NCC1(N2CCCCC2)CCCCC1 | 0.0 | 7 | 8 | 1.5 | i | x | x | 7 | x | x
COc1ccccc1C(=O)COC(=O)c1cccc(-n2cnnn2)c1 | 0.9 | 3 | 18 | 0.7 | i | -1 | x | 4 | x | x
O=C(Nc1ccccc1)c1sc(N2CCOCC2)nc1-c1ccccc1 | -1.3 | 8 | 8 | 0.9 | i | 5 | -1.2 | 0 | 6 | -2
Brc1ccc2ncnc(Nc3cccc4ccccc34)c2c1 | x | x | x | x | x | -35 | 2.2 | -8 | -5 | u
CCN1C(=O)[C@@H]2[C@@H](c3ccc(-c4ccc(OC)cc4)c(OC)c3)N3CCCC[C@@]3(C(=O)OC)[C@@H]2C1=O | -0.3 | 10 | 9 | 8.8 | i | x | x | 3 | x | x
Cc1ccc(NC(=O)c2ccc(OC(F)F)cc2)cc1S(=O)(=O)N(C)C | -7.7 | -11 | -10 | -1.6 | i | -4 | -1.9 | -1 | 10 | 0
O=C(Oc1ccc(C(=S)N2CCOCC2)cc1Br)c1cc(Cl)ccc1Cl | x | x | x | x | x | 2 | 1.3 | 2 | 3 | 32
CC(c1ccc(F)cc1)n1c(-c2ccc3ccccc3n2)n[nH]c1=S (centres undefined) | -2.5 | -32* | -13* | 3.8* | x | 89* | -3.2 | 3 | 12 | 30
OC(COC(c1ccc(F)cc1)c1ccc(F)cc1)CN1CCCC(C(F)(F)F)C1 (centres undefined) | 3.6 | -23* | -17* | -5.5* | i | 5 | 0.6 | -1 | 6 | 5

Whole records, quoted from the list:
O=C(CCC(=O)c1ccc(F)cc1)NCC1(N2CCCCC2)CCCCC1 across the screens: MLL AF4-AF9 inh = 0.0; rRNA inh HTS = 7; rRNA inh HTS OD600 = 8; rRNA inh HTS RFP = 1.5; FGF22 binding = i; ALR H2O2 inh = x; RanGTP-Impb inh = x; Beta cell apopt = 7; T cruzi inh = x; Calb FLC = x
Cc1ccc(NC(=O)c2ccc(NC(=O)c3ccccc3)cc2)cc1C across the screens: MLL AF4-AF9 inh = -0.8; rRNA inh HTS = 2; rRNA inh HTS OD600 = 6; rRNA inh HTS RFP = -1.8; FGF22 binding = i; ALR H2O2 inh = -7; RanGTP-Impb inh = -2.3; Beta cell apopt = -3; T cruzi inh = -7; Calb FLC = -5

The main list resumes, repeating the five entries before the break.
SMILES | MLL AF4-AF9 inh | rRNA inh HTS | rRNA inh HTS OD600 | rRNA inh HTS RFP | FGF22 binding | ALR H2O2 inh | RanGTP-Impb inh | Beta cell apopt | T cruzi inh | Calb FLC
CCN1C(=O)[C@@H]2[C@@H](c3ccc(-c4ccc(OC)cc4)c(OC)c3)N3CCCC[C@@]3(C(=O)OC)[C@@H]2C1=O | -0.3 | 10 | 9 | 8.8 | i | x | x | 3 | x | x
Cc1ccc(NC(=O)c2ccc(OC(F)F)cc2)cc1S(=O)(=O)N(C)C | -7.7 | -11 | -10 | -1.6 | i | -4 | -1.9 | -1 | 10 | 0
O=C(Oc1ccc(C(=S)N2CCOCC2)cc1Br)c1cc(Cl)ccc1Cl | x | x | x | x | x | 2 | 1.3 | 2 | 3 | 32
CC(c1ccc(F)cc1)n1c(-c2ccc3ccccc3n2)n[nH]c1=S (centres undefined) | -2.5 | -32* | -13* | 3.8* | x | 89* | -3.2 | 3 | 12 | 30
OC(COC(c1ccc(F)cc1)c1ccc(F)cc1)CN1CCCC(C(F)(F)F)C1 (centres undefined) | 3.6 | -23* | -17* | -5.5* | i | 5 | 0.6 | -1 | 6 | 5
CCN(CC)c1ccc(/C=N/NC(=O)c2c(Cl)c(C)nn2C)cc1 | 2.5 | 13 | 3 | -4.9 | i | u | -0.5 | -5 | -1 | 1
CCOc1cc(CNc2ccc3c(c2)CCC3)ccc1OC | x | x | x | x | x | 10 | 3.5 | x | 49 | 4
COc1ccccc1OCCSc1nnc(C)n1-c1ccccc1 | x | x | x | x | x | -1 | -3.3 | -1 | 2 | 0
O=C(CCC(=O)N(CC(=O)NC1CCCC1)Cc1ccccc1Cl)Nc1nccs1 | -0.9 | 0 | 8 | -0.5 | i | x | 5.3 | 2 | 18 | 0
CCOC(=O)N1CCN(C(=O)c2cnn3c(C)c(Cc4ccc(C)cc4)c(C)nc23)CC1 | x | x | x | x | x | -4 | -5.6 | -7 | 9 | 13
COc1ccc(N=Cc2c(O)ccc3ccccc23)cc1 | 8.5 | -3 | 8 | -2.8 | i | -6 | 9.5 | -4 | -1 | 9
CC1=C(C(=O)NCc2ccccc2)C(c2cccnc2)n2ncnc2N1 (centres undefined) | x | x | x | x | x | 8 | -15 | -2 | 9 | -14
Cc1[nH]oc(=O)c1N=Nc1c(Cl)cccc1Cl | x | x | x | x | x | 92* | 2.0 | 3 | 15 | 4
CCOC(=O)c1c(N)nn(C(=O)C(C)C)c1-c1ccc(OC)cc1 | x | x | x | x | x | -13 | 0.4 | -3 | -4 | 0
Cc1cccc(C(=O)N/N=C/c2ccoc2)c1 | -2.2 | 15 | 21 | 6.3 | i | -4 | 1.9 | -4 | -10 | 2
O=C(Nc1sc2c(c1C(=O)O)CCC2)C(=O)N1CCOCC1 | -3.5 | 1 | 10 | -2.5 | i | 2 | 0.3 | -2 | -2 | -17
Clc1ccc(-n2cccc2/C=N/n2cnnc2)cc1 | x | x | x | x | x | -14 | 2.9 | -4 | 2 | -9
CCCCc1ccc(NC(=S)N2CCN(c3ccccn3)CC2)cc1 | 5.7 | -8 | -7 | -2.9 | i | x | -2.1 | x | -4 | -3
CC(=O)c1c(N2CCOCC2)nc(=S)n(Cc2ccccc2)c1C | x | x | x | x | x | -9 | -2.9 | -2 | -33 | 6
Cc1cc(C)n(C(=O)C(C)n2nc([N+](=O)[O-])c(Br)c2C)n1 (centres undefined) | 7.0 | 18 | 10 | 0.9 | i | 3 | 0.4 | -2 | -8 | -11
O=C(Nc1c[nH]c(=O)[nH]c1=O)c1cccc(F)c1 | 1.8 | 13 | 11 | 3.2 | i | -3 | -0.9 | -2 | 1 | 9
O=C1CC(NCc2ccc(F)cc2)C(=O)N1c1ccccc1 (centres undefined) | -0.9 | 7 | -1 | 0.9 | x | -1 | -0.6 | -7 | 2 | 3
CSc1ccc(CNc2ccc(C)cc2)cc1 | 10 | -2 | 1 | -4.5 | i | 28 | -4.3 | -4 | 21 | -3
O=C(N=C1SC2CS(=O)(=O)CC2N1c1ccccc1)c1cccc([N+](=O)[O-])c1 (centres undefined) | -2.2 | 15 | 15 | 0.5 | i | -3 | x | -11 | x | x
COc1cc2c(cc1OC)CN(C(=O)C1CCCN1S(=O)(=O)c1ccc(C)cc1)CC2 (centres undefined) | -1.5 | 2 | 6 | -0.8 | i | -14 | -1.5 | 0 | 5 | -15
COc1ccc(C(=O)Nc2ccc(-c3ccc(C)o3)cc2)cc1S(=O)(=O)N1CCOCC1 | x | x | x | x | x | x | 1.5 | 35 | 4 | 8
COc1ccc(N2CCN(c3nc4c(c(=O)n(C)c(=O)n4C)n3Cc3ccccc3)CC2)cc1 | x | x | x | x | x | 47 | 7.4 | 17 | 19 | 9
COC(=O)CSc1nc(C)cc(C)n1 | -1.0 | 15 | 12 | 3.8 | i | -3 | -4.9 | 4 | -8 | 3
CC1CCCC(C)N1/N=C/c1ccc(O)c(O)c1 (centres undefined) | 3.3 | 6 | 20 | 1.2 | i | 99* | 2.1 | 0 | -5 | 21
Cc1ccc2c(CN3CC(C)CC(C)C3)cc(=O)oc2c1 (centres undefined) | -0.2 | -2 | -5 | -11 | i | x | -3.5 | 15 | 6 | 11
CC1CC1C(=O)OCC(=O)Nc1cccc(F)c1 (centres undefined) | -3.5 | 8 | 3 | 2.5 | i | -3 | x | 0 | x | x

Molecules from the list above with bromine:
SMILES | MLL AF4-AF9 inh | rRNA inh HTS | rRNA inh HTS OD600 | rRNA inh HTS RFP | FGF22 binding | ALR H2O2 inh | RanGTP-Impb inh | Beta cell apopt | T cruzi inh | Calb FLC
Brc1ccc2ncnc(Nc3cccc4ccccc34)c2c1 | x | x | x | x | x | -35 | 2.2 | -8 | -5 | u
O=C(Oc1ccc(C(=S)N2CCOCC2)cc1Br)c1cc(Cl)ccc1Cl | x | x | x | x | x | 2 | 1.3 | 2 | 3 | 32
Cc1cc(C)n(C(=O)C(C)n2nc([N+](=O)[O-])c(Br)c2C)n1 (centres undefined) | 7.0 | 18 | 10 | 0.9 | i | 3 | 0.4 | -2 | -8 | -11

These rows are one share of the data; rates above refer to the full screens.
